High-throughput results from PubChem.
SmPrx2 inh: blocks S. mansoni peroxiredoxin 2 enzymatic activity; Potency, µM; AID 448; 65,000 tested, 0.07% active; S. mansoni Prx2 activity coupled to TGR/GSH (TGR is thioredoxin glutathione reductase), NADPH fluorescence loss, qHTS; some inactives read as strong as hits; active means full or partial inhibition curve with a strong effect at the top dose; inconclusive means weaker partial or single-point curve; inactive means no accepted curve; also: series up to 57 µM; many of its hits are not listed in these tables
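Prx2 inhibition was measured as reduced NADPH consumption when electrons flowed from NADPH through TGR and glutathione to Prx2 and H2O2. Plates were read kinetically over 8 min; enzyme reagents were held at 4 deg C during dispensing.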
Anthrax LT inh: inhibitors of anthrax lethal toxin internalization | Cells, anthrax lethal toxin internalization, FRET ratio (460/530) | Potency, µM (series often up to 40 µM), for the others: top-dose activity change, negative = inhibition, hits mostly inhibitors | AID 912 | 70,000 tested, 0.67% active; active = well fitted falling ratio curve with the 530 nm signal flat; inconclusive = other ratio curves, or a change in one channel alone; inactive = flat curves in the ratio and both channels; the % refers to the ratio; also: % is scaled to controls: 0 for no effect and ±100 for the full control effect; nearly all actives have a fitted effect of over 50% in size; tested in ME-180 cells; beta-lactamase reporter
Active calls of the source: *; ? = inconclusive; · = not tested or not shown; & = joins results of further samples; [ ] = dose if it differs, or a comment. Potency is read from the fitted curve at half-maximal effect. This is a subset; count on the stated rates, not on these rows.

The line under a structure holds: SmPrx2 inh | Anthrax LT inh
Cn1c(=O)c2c(nc(N3CCOCC3)n2CC(=O)C23CC4CC(CC(C4)C2)C3)n(C)c1=O
    >57 | ?
CN(C)C(=S)SSC(=S)N(C)C
    · | ?
O=C1C(Cl)=C(N2CCN(Cc3ccccc3)CC2)C(=O)N1c1ccccc1
    >57 | ?
Cc1nc(CSc2nnc3scc(-c4ccccc4)n23)cs1
    >57 | 22%
Cc1c(NS(=O)(=O)c2cccs2)c(=O)n(-c2ccccc2)n1C
    >57 | 6%
CC1CN(S(=O)(=O)c2ccc(Cl)c(C(F)(F)F)c2)CC(C)O1 (stereo not given)
    >57 | ·
COc1ccc(CNC(=O)c2ccc(NS(=O)(=O)c3c(C)noc3C)cc2)cc1
    >57 | -13%
CCOC(=O)N1CCC(NS(=O)(=O)c2ccc3c(c2)OCC(=O)N3)CC1
    >57 | -5%
Cc1ccc2cc(CCNC(=O)C(C)C)c(=O)[nH]c2c1
    >57 | -5%
Cc1nc2ncnn2c(C)c1CCC(=O)Nc1ccc(S(=O)(=O)N2CCCCCC2)cc1
    >57 | -3%
COc1ccc(Oc2ncc3nc(-c4ccc(OC)cc4)c(=O)n(C4CC4)c3n2)cc1
    >11 | ?
Cc1cc(NC(=O)CCN2C(=O)c3ccccc3C2=O)no1
    >57 | -6%
CCOC(=O)c1c(NC(=O)c2ccoc2C)sc2c1CCC2
    >57 | -1%
COc1ccc(CCNS(=O)(=O)c2ccc3c(c2)oc(=O)n3C)cc1OC
    >57 | -2%
C[C@H]1CC[C@@]2(NC1)O[C@@H]1C[C@H]3[C@@H]4CC=C5C[C@@H](O)CC[C@]5(C)[C@@H]4CC[C@]3(C)[C@@H]1[C@@H]2C
    >57 | 5%[3.58 µM]
CCOCCCNC(=O)C1CCN(S(=O)(=O)CC)CC1
    >57 | 4%
CC(=O)Nc1cc2c(=O)n(Cc3ccccc3)c(C)nc2cc1N1CCOCC1
    >57 | -9%
O=S(=O)(O)[C@@H](c1ccccc1)[C@@H](O)c1ccccc1
    >57 | -15%[8 µM]
Cc1ccc2cccc(OC(=O)c3ccc4c(c3)OCCO4)c2n1
    >57 | -3%
O=C(NC1CS(=O)(=O)CC1NCc1ccccc1)c1ccccc1 (stereo not given)
    >57 | ?
COc1ccc(C2C3=C(CC(C)(C)CC3=O)N(CCN3CCOCC3)C3=C2C(=O)CC(C)(C)C3)cc1
    >57 | ?
O=C(CC1Nc2ccccc2NC1=O)NC1CCCCC1 (stereo not given)
    >57 | 1%
Cc1nc(NCCCn2ccnc2)c2oc3ccccc3c2n1
    >57 | 15%
Cc1c(CCC(=O)O)c(=O)oc2cc(O)ccc12
    · | ?
O=C(Nc1ccc(F)cc1F)c1ccco1
    >57 | 11%
Cn1c(=O)c2c(nc(NC3CCCCC3)n2CC(=O)C23CC4CC(CC(C4)C2)C3)n(C)c1=O
    >57 | -11%
COc1ccc(C2CC(c3cccc(OC)c3)n3nc(N)nc3N2)cc1 (stereo not given)
    >57 | -5%
CN(c1cccc(NC(=O)c2ccccc2N(C)S(C)(=O)=O)c1)S(C)(=O)=O
    >57 | 8%
Cc1ccc(C(=O)OCC(=O)c2ccc(Cl)s2)s1
    >57 | -4%
O=C(NCc1ccccc1)N1CCC(c2nc3ccccc3[nH]2)CC1
    >57 | 2%

Random excerpt: three entries already listed
The line under a structure holds: SmPrx2 inh | Anthrax LT inh
Cc1ccc2cc(CCNC(=O)C(C)C)c(=O)[nH]c2c1
    >57 | -5%
Cc1ccc2cccc(OC(=O)c3ccc4c(c3)OCCO4)c2n1
    >57 | -3%
O=C1C(Cl)=C(N2CCN(Cc3ccccc3)CC2)C(=O)N1c1ccccc1
    >57 | ?

Other entries follow.
The line under a structure holds: SmPrx2 inh | Anthrax LT inh
Cc1ccc(-c2ccc(OCC(=O)N3CCOCC3)cc2)cc1
    >57 | -11%
Cc1ccc(-c2noc(CN3CCN(c4ccccc4F)CC3)n2)cc1
    >57 | ?
Cc1ccc(N2Cc3ccccc3OC(C)C2=O)cc1 (stereo not given)
    >57 | -9%
COc1ccccc1-n1nnnc1SCc1ccccc1
    >57 | 29%
O=c1cnc2cnc(N3CCNCC3)nc2n1C1CC1
    >57 | 3%
Cc1cc(NC(=O)Nc2ccc(F)c(Cl)c2)no1
    >57 | ·
O=C(c1ccc2c(c1)OCCO2)C1CCN(C(=O)c2ccc(F)cc2)CC1
    >57 | -23%
c1ccc(C2=Nn3c(nnc3-c3cc(-c4ccccc4)n[nH]3)SC2)cc1
    >57 | 13µM*
CCN[C@@H]1C[C@H](N)[C@H](O[C@H]2OC(CN)=CC[C@H]2N)[C@@H](O)[C@H]1O[C@H]1OC[C@@](C)(O)[C@@H](NC)[C@@H]1O
    >57 | -3%[3.58 µM]
COCC(=O)NCc1ccc2c(c1)cc(C)n2C
    >57 | 9%
O=C(CSc1nnc(COc2ccccc2)n1Cc1ccco1)c1ccc(F)cc1
    >57 | ·
CCOC(=O)N1CCN(C(=O)CSc2nnc(-c3cc(OC)ccc3OC)o2)CC1
    >57 | 5%
CCN1C(=O)[C@H]2[C@H]3[C@H](O)[C@H](O)C/C(=N/O[C@@H]4O[C@@H](COC(C)=O)[C@@H](OC(C)=O)[C@@H](OC(C)=O)[C@H]4OC(C)=O)[C@H]3CC[C@@H]2C1=O
    · | 2%[8 µM]
Cc1ccc2cc(CN(CCN3CCCC3)C(=O)Nc3ccc(F)cc3)c(=O)[nH]c2c1C
    >57 | -3%
CC(Oc1ccccc1)C(=O)Nc1ccc(S(=O)(=O)N2CCOCC2)cc1 (stereo not given)
    · | -7%
Cc1cc(C)c(NC(=O)C2CCCN2CCO)c(C)c1 (stereo not given)
    >57 | -4%
COc1ccc(C(=O)N2CCSC2=S)cc1OC
    >57 | -20%
O=C(CNS(=O)(=O)c1cccs1)Nc1ccc2c(c1)OCCO2
    >57 | 9%
Cc1nc2sccn2c1-c1nc(C2CC2)c(C(=O)c2ccc3c(c2)NC(=O)CO3)s1
    >57 | -1%
O=C(NCCCn1ccnc1)c1ccc2c(c1)OCCO2
    >57 | 2%
CCOC(=O)CCc1c(C)nc(SCCCn2c(=O)[nH]c3ccccc32)c(C#N)c1C
    >57 | -14%
O=C1N=C(N2CCOCC2)CS1
    >57 | ?
CN1CCN(Cc2nc3c(c(=O)n(C)c(=O)n3C)n2Cc2ccccc2Cl)CC1
    >57 | ?
Cc1nc(SCC(=O)Nc2cccc(Cl)c2)n[nH]1
    >57 | -5%
O=C(NC1CCCC1)c1cnn2c(C(F)(F)F)cc(-c3ccco3)nc12
    >57 | -27%
CCn1c(=N)c(C(=O)OC)cc2c(=O)n3ccccc3nc21
    >57 | 29%
COc1ccc(S(N)(=O)=O)cc1C(=O)NCC1(N2CCCCC2)CCCCC1
    >57 | -3%
Cc1ccc2cc3cc(C(=O)NCCCN4CCCCCC4)oc3nc2c1
    >57 | ?
CC(C)CC(C)N (stereo not given)
    · | 14%
O=C(NCCN1CCOCC1)c1ccncc1
    >57 | -2%

(more compounds)
The line under a structure holds: SmPrx2 inh | Anthrax LT inh
O=C(O)C(Br)Br
    · | -4%
CC[C@H]1CN2CC[C@@H]1C[C@H]2[C@@H](O)c1ccnc2ccc(OC)cc12
    >57 | 1%[3.58 µM]
CCN(CC)C(=O)c1cc(-c2ccccc2OC)on1
    >57 | 2%
O=S(=O)(c1ccc(S(=O)(=O)N2CCN(Cc3ccccc3)CC2)cc1)N1CCOCC1
    >57 | 9%
CCOC(=O)c1ccc(S(=O)(=O)N2CCC(C(=O)OCC)CC2)cc1
    >57 | 6%
Nc1ccc(S(=O)(=O)c2ccc(NC(=O)c3cccnc3)cc2)cc1
    >57 | -10%[8 µM]
C=CCn1c(SCC(=O)Nc2cc3oc4ccccc4c3cc2OC)nnc1-c1cnccn1
    >57 | -9%
O=C(CSc1nnc(-c2cnccn2)n1Cc1ccco1)c1ccc(Cl)cc1
    >57 | ·
Cc1ccnc2c1NC(=O)c1cccnc1N2C1CC1
    >57 | 12%&21%
COc1ccc(C)cc1NS(=O)(=O)c1ccc(NS(=O)(=O)c2ccc(NC(C)=O)cc2)cc1
    >57 | -8%
O=c1cc(N2CCOCC2)oc2c(-c3ccccc3)cccc12
    >57&>57 | 19%&14%
CC1CC=C2C(C#N)=C(N)C(C#N)(C#N)C(c3cccs3)C2C1 (stereo not given)
    >57 | -13%
N#Cc1ccc(CN2CCC3(CC2)CCN(C(=O)c2ccco2)CC3)cc1
    >57 | ?
C=C1[C@@H](O)C2C=CC[C@H](C)C(=O)[C@@](C)(O)C=C[C@@H](OC(C)=O)[C@@]23C(=O)N[C@H](Cc2ccccc2)[C@@H]3[C@@H]1C (stereo not given in full)
    >57 | ?
CCOC(=O)c1ccc(S(=O)(=O)n2c(CN3CCCCC3)nc3ccccc32)cc1
    >57 | -10%
O=C(COc1ccc2oc3c(c2c1)CCCC3)Nc1ccccn1
    >57 | -11%
Fc1ccc(NCc2cn3ccccc3n2)cc1
    >57 | -2%
COCC(=O)Nc1nnc(-c2cccs2)s1
    >57 | 7%
O=C(NCc1ccccn1)C1CCC(=O)N1C1CCCC1 (stereo not given)
    >57 | 1%
N#Cc1ccccc1Cn1c(=O)n(Cc2ccc(C(=O)NCc3ccco3)cc2)c(=O)c2ccccc21
    >57 | ?
COc1ccc(NC(=O)N(C2CCCCC2)C(C)c2ccco2)c(OC)c1 (stereo not given)
    >57 | 14%
COCCCn1c(=N)c(C(=O)NCc2ccc3c(c2)OCO3)cc2c(=O)n3ccccc3nc21
    >57 | ·
Cc1c(C(=O)O)c2cc(O)ccc2n1-c1ccccc1
    >57 | -6%
Cc1ccc(-n2ncc3c(Nc4c(C)n(C)n(-c5ccccc5)c4=O)ncnc32)c(C)c1
    >57 | 6%
CC(C)C(NS(=O)(=O)c1ccc(Br)s1)C(=O)O (stereo not given)
    >57 | -5%
CC(C)NC(=O)Cn1nnc(-c2ccc(Cl)cc2)n1
    >57 | -9%
O=C(O)CNC1=NCCC1
    >57 | ·
O=C1NC(=O)N(Cc2ccccc2Cl)C(=O)/C1=C/N1CCOCC1
    >57 | -11%
COc1ccc(-c2nc3cnc(N4CCNCC4)nc3n(CCc3ccccc3)c2=O)cc1
    >57 | ?
CN1C(=C2C(=O)OC(C)(C)OC2=O)Sc2ccccc21
    >57 | 14%

The results go on:
The line under a structure holds: SmPrx2 inh | Anthrax LT inh
Cc1nc(NC(=O)c2cc3c(s2)CCCCC3)sc1C(=O)N(C)C
    >57 | 2%
CN(C)S(=O)(=O)c1cccc(C(=O)C2=C3SC=C(c4ccccc4)N3CC2)c1
    >57 | ?
CC(C)(O)C#Cc1ccccc1C(=O)NC(CC(N)=O)C(=O)O (stereo not given)
    >57 | -5%
COc1cccc(-c2cncnc2NCc2cccc(C)c2)c1
    >57 | ?
Cc1cc(S(=O)(=O)NC(C)C)ccc1OCC(=O)N1CCN(Cc2ccc3c(c2)OCO3)CC1
    >57 | ?
O=c1c2c(nc3nc(SCc4ccccc4)[nH]n13)CCC2
    >57 | -1%
Brc1ccccc1-c1nnc(COc2ncnc3c2cnn3-c2ccccc2)o1
    >57 | 6%
CN(C)S(=O)(=O)c1ccc(C(=O)Nc2ccc(OCC(=O)N3CCOCC3)cc2)cc1
    · | -4%
O=C(Nc1nc2c(Cl)cccc2s1)c1ccc(Br)o1
    >57 | 14%
Cc1csc(SCC(=O)Nc2c(C)n(C)n(-c3ccccc3)c2=O)n1
    >57 | 10%
C=CCNc1oc(COc2ccc(C)cc2)nc1C#N
    >57 | -17%
Cc1ncc2c(c1OC(=O)c1ccccc1)COC(C)(C)OC2
    >57 | 7%
COC(=O)c1ccc(C(NC(=O)OCc2ccccc2)/C(=C/[C@@H](C)C(=O)NCc2ccc(-c3ccccc3)cc2)c2cccnc2)cc1 (stereo not given in full)
    · | 11%
COc1ccc(S(=O)(=O)Nc2ccc(NC(C)=O)cc2)cc1OC
    >57 | ·
CCC(=O)CC(NC(=O)OC)c1ccc(F)cc1 (stereo not given)
    · | 1%[8 µM]
CCOCCCNC(=O)CN1CCN(c2ccc(F)cc2)CC1
    >57 | -3%
CCOC(=O)N1CCN(Cc2nc(-c3ccc(C)cc3)no2)CC1
    >57 | 5%
N#Cc1ccccc1NC(=O)COC(=O)c1ccc(S(=O)(=O)N2CCCC2)cc1
    >57 | -12%
[O-][n+]1onc2c1C(N1CCOCC1)CCC2N1CCOCC1 (stereo not given)
    >57 | 3%
O=C(CSc1nnc(COc2ccccc2)o1)Nc1nccs1
    >57 | 9%
CCC(c1nnnn1CCOC)N1CCN(c2cccc(C(F)(F)F)c2)CC1 (stereo not given)
    >57 | ?
COc1ccc(OCC2CC3C(CCC(C)C3c3ccc(Br)cc3)C(=O)O2)cc1 (stereo not given)
    · | -14%[8 µM]
CCOc1ccccc1-c1nnc(SCC(=O)Nc2ccccc2)o1
    >57 | -16%
CN(Cc1nc(-c2ccccn2)no1)S(=O)(=O)c1ccc(Br)cc1
    >57 | ·
COC(=O)c1ccc(CSc2nc3c(cnn3-c3ccccc3)c(=O)[nH]2)o1
    >57 | 14%

Of the compounds above, 3 contain a CF3 group:
The line under a structure holds: SmPrx2 inh | Anthrax LT inh
CC1CN(S(=O)(=O)c2ccc(Cl)c(C(F)(F)F)c2)CC(C)O1 (stereo not given)
    >57 | ·
O=C(NC1CCCC1)c1cnn2c(C(F)(F)F)cc(-c3ccco3)nc12
    >57 | -27%
CCC(c1nnnn1CCOC)N1CCN(c2cccc(C(F)(F)F)c2)CC1 (stereo not given)
    >57 | ?
